# High-throughput results deposited in PubChem by several laboratories.
# Rce1 inh – blocks yeast Ras-converting enzyme. Q03530. yeast membranes, quenched prenylated peptide cleavage fluorescence. calls only. 0.27% of 290,000 active. AID 2563;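 active = fall in fluorescence gain of 50% or more versus controls, with final raw signal at or below 3038400; inconclusive = same 50% fall but final raw signal above 3038400; inactive = fall in fluorescence gain under 50%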;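 also: plate controls were neutral control wells for no effect and wells lacking membranes for full effect; tested at 10 µM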
# Target sequence (Q03530 whole entry, looked up): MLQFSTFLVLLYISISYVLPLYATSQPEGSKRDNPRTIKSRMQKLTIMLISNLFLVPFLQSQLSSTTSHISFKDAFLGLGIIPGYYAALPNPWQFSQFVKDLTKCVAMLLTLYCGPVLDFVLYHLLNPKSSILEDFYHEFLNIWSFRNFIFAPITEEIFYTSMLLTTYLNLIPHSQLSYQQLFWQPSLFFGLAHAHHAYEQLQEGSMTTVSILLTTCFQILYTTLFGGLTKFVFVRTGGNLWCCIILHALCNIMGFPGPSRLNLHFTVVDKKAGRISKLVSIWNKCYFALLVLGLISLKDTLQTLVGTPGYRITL
# PABP polyA inh – blocks human PABP binding to poly(A) RNA; P11940; fluorescence polarization; inhibition, % at 35 µM; 1% of 290,000 active; AID 2014;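 active = 50% or more with normal probe brightness, or confirmed in later tests; inconclusive = above 50% with abnormal brightness, or retests that disagree; inactive = below 50% or failed in later tests; about a fifth of its hits are not listed in these tables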;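 also: calls also rest on retests at 20 µM and on dose response follow-up; controls were probe without protein and protein plus probe with vehicle; some compounds called inactive have numbers as strong as hits; many hits fall short of the cut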
# MT1-MMP act inh – inhibitors of human MT1-MMP activation. P50281. HT1080 RFP-PRO-GFP cells, GFP/RFP ratio fluorescence, overnight; percent of plate control window, DMSO zero. GFP/RFP ratio change, % at 20 µM. 0.061% of 360,000 active;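 active = GFP/RFP ratio change of at least 30% with cell ATP level not reduced by more than half and red fluorescence within 50% of control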; also: strong numbers were not always called active
#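 Compound: 20 µM single dose, 1% DMSO / System: HT1080 RFP-PRO-GFP cells / Controls: DMSO and RFP-L50D-GFP cell wells / Read-out basis: GFP/RFP fluorescence ratio / Schedule: overnight compound exposure at 37 °C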
# UUG fidelity – yeast start codon fidelity modulation; S. cerevisiae UUG-firefly luciferase reporter, luminescence/redox ratio; 0.13% of 350,000 active; activity score, % at 18.7 µM;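 active = replicate mean at a twofold rise or more, about +100% in these data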;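 also: firefly luciferase made from a UUG start codon reports start codon fidelity; reporter light over untreated wells divided by growth signal over untreated wells; some hits fall short of that in this replicate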
# eIF4H FP inh – inhibitors of RNA binding by human eIF4H. inhibition, % at 35 µM. 0.94% of 290,000 active. AID 2012. eIF4H fluorescence polarization binding assay;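 active = 50% or more with normal probe brightness, or confirmed in later tests; inconclusive = above 50% with abnormal brightness, or retests that disagree; inactive = below 50% or failed in later tests; about a fifth of its hits are not listed in these tables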;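 also: calls also rest on retests at 20 µM and on dose response follow-up; 0% = protein and probe with vehicle and 100% = probe without protein; strong numbers were not always called active; many hits fall short of the cut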
# Env fusion inh – blocks HIV Env-driven cell-cell fusion; 1.1% of 360,000 active; inhibition, % at 12.3 µM; HeLa-JRFL Env/CEM21 cell fusion, luciferase;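 active = mean replicate inhibition score of at least 50 and every replicate individually at or above 50; inconclusive = only one of the two criteria met; inactive = mean below 50 and not all replicates reaching 50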;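 also: 0% = plate neutral controls and 100% = maraviroc near 300 nM; one replicate is shown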
# CSC inhib – cancer stem cell inhibition. 1.1% of 300,000 active. cancer stem cell-like cells viability, luminescence. inhibition, % at 7.5 µM;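 active = mean at 75% or more and at least half the replicates too; inconclusive = mean and replicates disagree; tested in HMLE shEcad cells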;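 also: 0% = median of negative and 100% = median of positive control wells; the first replicate is given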
# MT1-MMP act inh RFP – further read-out of MT1-MMP act inh, marked with its call; RFP signal change, %; measured here: RFP expression control read;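 0 = vehicle wells; hits needed this value within 50% of zero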
# Active calls of the source: *; i = inactive; u = inconclusive; x = not tested or not shown.
mol | MT1-MMP act inh RFP | eIF4H FP inh | PABP polyA inh | CSC inhib | MT1-MMP act inh | UUG fidelity | Rce1 inh | Env fusion inh
CCC(=O)Nc1c(C)nn(C(=O)CC)c1C | 0 | 9 | 0 | -3 | 0 | -26 | i | x
CCOC(=O)c1c(NC(=O)Cn2cnc([N+](=O)[O-])n2)sc2c1CCCC2 | -3 | 3 | 8 | 13 | 1 | x | i | -3
Cc1[nH]c2ccccc2c1C(=O)CN1C(=O)C(=O)N(Cc2ccco2)C1=O | 2 | 3 | 4 | 3 | -1 | x | i | 6
O=C(NCCCN1CCCC1=O)c1c(O)nc2sccn2c1=O | 2 | x | x | -8 | 0 | -19 | i | u
CC1(C)CC(=O)C=C(C(=O)N2CCCC(CCC(=O)NCc3ccccc3F)C2)O1 (centres undefined) | 0 | -6 | -4 | -9 | -4 | -18 | i | -3
CCOc1ccc(S(=O)(=O)N(CC)CC)cc1NS(=O)(=O)c1ccc(F)c(F)c1F | -3 | 1 | -2 | -1 | 8 | x | i | x
CCOC(=O)C1=CN(c2cccc(F)c2)C=C(C(=O)OCC)C1c1cc(OC)c(O)c([N+](=O)[O-])c1 | -7 | 1 | 8 | x | 17 | -2 | i | 24
C/C(=N\NC(=O)c1ccccc1)c1ccc(-n2ccnc2)cc1 | 12 | -10 | 26 | -1 | 9 | x | i | -309
CCC(C)NC(=O)c1ccccc1-c1nc2ccccc2[nH]1 (centres undefined) | 2 | -4 | 11 | -19 | -1 | x | i | -6
COc1cccc(C(=O)N2CCC(N3CC(C)OC(C)C3)CC2)c1 (centres undefined) | 5 | -5 | -8 | -6 | 1 | x | i | x
CCOC(=O)c1c(N)sc(C(=O)Nc2ccccc2F)c1C | 0 | -4 | -9 | -1 | 1 | -35 | i | -189
CSc1nc2cc(S(=O)(=O)N3CCOCC3)ccc2s1 | 3 | 17 | 7 | 0 | 0 | -16 | i | -13
CC(C)(C)c1ccccc1NC(=O)C1=COCCO1 | 7 | x | x | -8 | 4 | -22 | i | -4
Cc1cc(C)nc(SCc2nnc(SCC(=O)Nc3ccc(C)c(C)c3)n2Cc2ccco2)n1 | x | 4 | 10 | -5 | x | -11 | i | 54*
COc1ccc(NC(=O)c2cc3cccc(OC)c3oc2=Nc2ccc(C(=O)O)cc2)cc1OC | -8 | 2 | 0 | x | 4 | x | i | u
Cc1ccc(NS(=O)(=O)c2cc(-c3n[nH]c(=O)c4ccccc34)ccc2C)cc1 | -12 | -4 | 8 | 57 | -4 | x | i | 27

# An excerpt from above in order of formula weight, descending.
mol | MT1-MMP act inh RFP | eIF4H FP inh | PABP polyA inh | CSC inhib | MT1-MMP act inh | UUG fidelity | Rce1 inh | Env fusion inh
Cc1cc(C)nc(SCc2nnc(SCC(=O)Nc3ccc(C)c(C)c3)n2Cc2ccco2)n1 | x | 4 | 10 | -5 | x | -11 | i | 54*
COc1ccc(NC(=O)c2cc3cccc(OC)c3oc2=Nc2ccc(C(=O)O)cc2)cc1OC | -8 | 2 | 0 | x | 4 | x | i | u
Cc1ccc(NS(=O)(=O)c2cc(-c3n[nH]c(=O)c4ccccc34)ccc2C)cc1 | -12 | -4 | 8 | 57 | -4 | x | i | 27

# (listing goes on)
mol | MT1-MMP act inh RFP | eIF4H FP inh | PABP polyA inh | CSC inhib | MT1-MMP act inh | UUG fidelity | Rce1 inh | Env fusion inh
Cc1cc(-c2cc(C(=O)O)c3ccccc3n2)c(C)s1 | -2 | 10 | 18 | -7 | 9 | x | i | -10
O=C(NNC(=O)C1CC1)c1ccccc1[N+](=O)[O-] | 5 | -3 | -3 | -9 | 2 | -11 | i | -12
COc1ccc2[nH]c3c(N4CCN(Cc5ccc6c(c5)OCO6)CC4)ncnc3c2c1 | -10 | -7 | -14 | 4 | 11 | -11 | i | x
O=S(=O)(Nc1nc2ccccc2nc1NCC1CCCO1)c1cccc(Cl)c1 (centres undefined) | 1 | 8 | 19 | 2 | 4 | -6 | i | 1
O=c1c2ccccc2cnn1-c1ccc2ccccc2c1 | 0 | -13 | 4 | 7 | -2 | -22 | i | -71
CC(C)OC(=O)CSc1nnc(-c2ccncc2)n1N | 2 | -11 | 1 | -13 | -4 | -15 | i | -31
COc1ccc(S(=O)(=O)Nc2ccc(S(=O)(=O)Nc3cc(C)nc(C)n3)cc2)cc1OC | 3 | -18 | -2 | -6 | 4 | -11 | x | -2
CCOc1cc(N2CCOCC2)c(OCC)cc1NC(=O)CSc1ncn[nH]1 | 3 | -2 | 11 | -1 | 5 | -5 | i | 6
CC1(C)CC(NC(=O)c2ccc(Cl)c(Cl)c2)CC(C)(C)N1 | 3 | -9 | -6 | -7 | 2 | -14 | i | -11
COc1ccc(CC2CC(=O)N(c3ccc(C)cc3)C2=O)cc1 (centres undefined) | 2 | 5 | 4 | -11 | -3 | -13 | i | 2
O=C(COc1ccc(Cl)cc1)NCCN1CCCC1 | 4 | 1 | 9 | -7 | -1 | -4 | i | -16
O=C(CSc1nnnn1-c1cccnc1)NCc1cccs1 | 0 | 6 | -1 | -6 | -8 | -17 | i | 8
COc1cc(NS(=O)(=O)c2ccc(NC(=S)NC(=O)/C=C/c3ccc(F)cc3)cc2)ncn1 | 0 | 6 | 2 | -6 | 0 | x | i | -7
c1ccc(OCCCN2CCCC2)cc1 | 5 | 2 | 10 | x | 2 | 8 | i | -60
Nc1ncnc2c1ncn2C1CCCO1 (centres undefined) | 1 | x | x | -14 | 0 | -3 | x | -7
Cc1nc(-c2ccc(S(=O)(=O)N3CCCCCC3)cc2)cs1 | -5 | 12 | -8 | -17 | 1 | -2 | i | x

# Just MT1-MMP act inh and eIF4H FP inh, for some of the entries so far:
SMILES	MT1-MMP act inh	eIF4H FP inh
CC1(C)CC(=O)C=C(C(=O)N2CCCC(CCC(=O)NCc3ccccc3F)C2)O1 (centres undefined)	-4	-6
CCOc1ccc(S(=O)(=O)N(CC)CC)cc1NS(=O)(=O)c1ccc(F)c(F)c1F	8	1
CCOC(=O)C1=CN(c2cccc(F)c2)C=C(C(=O)OCC)C1c1cc(OC)c(O)c([N+](=O)[O-])c1	17	1
C/C(=N\NC(=O)c1ccccc1)c1ccc(-n2ccnc2)cc1	9	-10
CCC(C)NC(=O)c1ccccc1-c1nc2ccccc2[nH]1 (centres undefined)	-1	-4

# (further entries)
mol | MT1-MMP act inh RFP | eIF4H FP inh | PABP polyA inh | CSC inhib | MT1-MMP act inh | UUG fidelity | Rce1 inh | Env fusion inh
O=C(c1cccc(-c2ccccc2)c1)N1CC[C@@H](N2CCC(O)CC2)[C@H](O)C1 | -1 | 3 | -6 | 1 | -5 | -19 | i | -7
C=CCSc1nc2ccccc2n1C(=O)/C=C/c1ccc(OC)c(OC)c1 | -29 | 3 | 4 | 5 | -22 | -12 | i | x
Cc1c(NC(=S)Nc2ccc(Cl)cc2)c(=O)n(-c2ccccc2)n1C | 3 | 4 | -6 | 14 | 5 | x | i | -1
CC(C)c1ccc(NC(=O)CN2C(=O)c3ccccc3S2(=O)=O)cc1 | -1 | 3 | 5 | 9 | -1 | 3 | i | 4
O=C(NCCC1=CCCCC1)C1CCC(=O)N(Cc2ccc(Cl)cc2)C1 (centres undefined) | 2 | 6 | 6 | -7 | 0 | 26 | i | 14
COc1ccc(CCNC(=O)c2cc(COc3c(F)cccc3F)on2)c(OC)c1 | 1 | -6 | -10 | -1 | -1 | -10 | i | -6
CCn1nc(NS(=O)(=O)c2ccc([N+](=O)[O-])cc2)c2cc3cc(C)ccc3nc21 | 5 | -3 | 7 | -1 | 3 | -21 | i | 9
Cc1ccc(/C([O-])=C(/C(=S)Nc2ccc(SC(F)F)cc2)[n+]2ccccc2)cc1[N+](=O)[O-] | -1 | -3 | -12 | -19 | -6 | x | i | -17
CN1CCN(c2ccc(S(=O)(=O)N3CCOCC3)cc2NC(=O)COc2ccc(F)cc2Cl)CC1 | 1 | -13 | -10 | 8 | -3 | 4 | i | 27
COc1ccc(N=Cc2oc3ccc4ccccc4c3c2O)cc1 | -1 | 12 | -10 | 2 | -118 | x | i | -24
C/C(=N\NS(=O)(=O)c1ccc([N+](=O)[O-])cc1)c1ccc(NC(=O)c2ccco2)cc1 | 1 | 4 | u | 6 | 3 | -10 | i | -11
CC(=O)NCCOC(=O)Nc1sc(=S)n(C)c1C | 4 | -1 | -14 | x | -3 | -22 | i | -17
COc1ccc(N2C(=O)CC(NNC(=O)c3cccnc3)C2=O)cc1 (centres undefined) | 1 | -3 | 7 | -14 | 0 | -14 | i | 5
CC(C)(C)c1ccc(-n2ncc3c2CCCC3NC(=O)CCn2cncn2)cc1 (centres undefined) | -13 | -4 | -7 | -8 | 1 | -26 | x | 0
O=C(Nc1ccc(S(=O)(=O)Nc2nccs2)cc1)c1cnc(Cl)c(Cl)c1 | -4 | 0 | -4 | 0 | -2 | x | i | -8
CCC(C)c1ccccc1N=Cc1ccc2c(c1)OCO2 (centres undefined) | 4 | -6 | 0 | x | 0 | -5 | i | -4
CC(C)Oc1ccc(CNC2CCOC(C)(C)C2)cc1 (centres undefined) | 2 | -1 | 9 | -10 | 0 | -14 | i | -5
CC(=O)Nc1cccc(C(=O)Nc2ccc(S(=O)(=O)NC3=NCCCCC3)cc2)c1 | -3 | x | x | -7 | 1 | x | i | -3
CC12CCC(C(=O)NCC3CCCO3)(OC1=O)C2(C)C (centres undefined) | 7 | -2 | 1 | -11 | 3 | -12 | i | x

# Grouped by structure, the compounds so far containing an aryl thioether with sulfur outside any ring
mol | MT1-MMP act inh RFP | eIF4H FP inh | PABP polyA inh | CSC inhib | MT1-MMP act inh | UUG fidelity | Rce1 inh | Env fusion inh
CSc1nc2cc(S(=O)(=O)N3CCOCC3)ccc2s1 | 3 | 17 | 7 | 0 | 0 | -16 | i | -13
Cc1cc(C)nc(SCc2nnc(SCC(=O)Nc3ccc(C)c(C)c3)n2Cc2ccco2)n1 | x | 4 | 10 | -5 | x | -11 | i | 54*
CC(C)OC(=O)CSc1nnc(-c2ccncc2)n1N | 2 | -11 | 1 | -13 | -4 | -15 | i | -31
CCOc1cc(N2CCOCC2)c(OCC)cc1NC(=O)CSc1ncn[nH]1 | 3 | -2 | 11 | -1 | 5 | -5 | i | 6
O=C(CSc1nnnn1-c1cccnc1)NCc1cccs1 | 0 | 6 | -1 | -6 | -8 | -17 | i | 8
C=CCSc1nc2ccccc2n1C(=O)/C=C/c1ccc(OC)c(OC)c1 | -29 | 3 | 4 | 5 | -22 | -12 | i | x
Cc1ccc(/C([O-])=C(/C(=S)Nc2ccc(SC(F)F)cc2)[n+]2ccccc2)cc1[N+](=O)[O-] | -1 | -3 | -12 | -19 | -6 | x | i | -17
